Compound activity (PubChem BioAssay)
c-Myc SMM – c-Myc (human) binding. P01106. small molecule microarray, His-c-Myc binding, anti-His fluorescence. calls only. 1.5% of 17,000 active. AID 624141;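 active = spot fluorescence over background with P-value below 7% in all four replicate spots, showing protein binding; compounds were printed on slides so no solution concentration is given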;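 note: score is binary with 100 for all four spots passing and 0 otherwise; about 2 pmol printed per array spot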
Target sequence (P01106 whole entry, looked up): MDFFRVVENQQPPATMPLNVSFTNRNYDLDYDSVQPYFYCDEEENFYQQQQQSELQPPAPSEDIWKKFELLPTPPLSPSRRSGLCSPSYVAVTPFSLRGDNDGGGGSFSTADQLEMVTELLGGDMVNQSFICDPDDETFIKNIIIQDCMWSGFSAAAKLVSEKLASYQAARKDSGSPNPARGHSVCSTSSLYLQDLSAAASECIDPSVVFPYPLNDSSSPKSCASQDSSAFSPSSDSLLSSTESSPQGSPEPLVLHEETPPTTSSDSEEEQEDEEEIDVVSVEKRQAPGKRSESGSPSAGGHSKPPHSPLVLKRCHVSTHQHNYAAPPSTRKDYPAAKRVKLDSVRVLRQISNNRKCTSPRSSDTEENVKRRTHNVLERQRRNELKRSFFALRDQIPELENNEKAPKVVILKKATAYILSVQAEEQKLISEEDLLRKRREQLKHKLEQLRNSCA
p53 mut binder – binds human mutant p53 on microarray; small molecule microarray binding, anti-GST fluorescence; calls only; 0.4% of 17,000 active; AID 624136;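 active = compounds whose four printed spots each glow above background more than chance allows, each with a p-value under 7%; compounds were printed on slides so no solution concentration is given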;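 note: about 2 pmol printed per array spot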
ID4 binder – ID4 (human) binding. 1.2% of 31,000 active. P47928. small molecule microarray, Flag-ID4 binding, fluorescence F/B. calls only. AID 624137;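 active = spot signal over background at p below 0.07 in all four prints; compounds were printed on slides so no solution concentration is given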;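 note: a binder raises fluorescence above local background on the spot; about 2 pmol printed per array spot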
Target sequence (P47928 whole entry, looked up): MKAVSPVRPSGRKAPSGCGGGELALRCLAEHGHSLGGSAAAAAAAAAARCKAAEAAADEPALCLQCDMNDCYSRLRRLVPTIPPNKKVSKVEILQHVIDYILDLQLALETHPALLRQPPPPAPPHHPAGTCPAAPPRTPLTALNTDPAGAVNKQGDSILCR
STAT3 binder – binders of human STAT3. calls only. Small molecule microarray, His-STAT3 binding, anti-His fluorescence. 0.2% of 17,000 active. P40763;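 active = compounds whose four printed spots each show fluorescence over background unusually high for their array block, chance value under 7%; compounds were printed on slides so no solution concentration is given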;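 note: about 2 pmol printed per array spot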
Calls only; i = inactive; x = no result given; + = active, no number. A portion of the library; rates above refer to the full screens.

SMILES	c-Myc SMM	p53 mut binder	ID4 binder	STAT3 binder
COc1c2c(c(O)c3c(=O)c4c(OC)c(O)ccc4oc13)C1CCCC(C)(O2)O1 (stereo not drawn)	i	i	i	i
CCCCC#Cc1nc(NC)c2ncn(C3OC(CO)C(O)C3O)c2n1 (stereo not drawn)	i	i	i	i
CCC(C)C(Nc1ncnc2c1oc1ccccc12)C(=O)O (stereo not drawn)	i	i	i	i
COc1ccc(NC(=O)N(C)C[C@@H]2Oc3c(NS(=O)(=O)c4ccc(C)cc4)cccc3C(=O)N([C@@H](C)CO)C[C@@H]2C)cc1	i	i	x	i
O=C(NCCN1CCOCC1)c1cnn2c(C(F)F)cc(-c3ccccc3)nc12	i	i	i	i
C[C@H](CO)N1C[C@H](C)[C@H](CN(C)Cc2ccc(F)cc2)Oc2ncc(-c3cc4ccccc4o3)cc2C1=O	i	i	i	i
CCN1CCN(C(=O)c2ccc(CNS(=O)(=O)c3cccc(OC)c3)cc2)CC1	i	i	i	i
O=c1[nH]c(=O)c2sc3nc(-c4ccc5c(c4)OCCO5)cc(C(F)(F)F)c3c2[nH]1	i	i	i	i
Cc1noc(C)c1S(=O)(=O)Nc1ccc2c(c1)C(=O)N([C@@H](C)CO)C[C@@H](C)[C@H](CN(C)C(=O)Cc1ccccc1)OCCCC[C@H](C)O2	i	i	i	i
Cc1ccc(S(=O)(=O)Nc2ccc3c(c2)C(=O)N([C@H](C)CO)C[C@H](C)[C@@H](CN(C)C(=O)Nc2c(C)noc2C)O3)cc1	i	i	i	i
Cc1ccc(S(=O)(=O)N(C)C[C@@H]2Oc3ccc(NS(C)(=O)=O)cc3C(=O)N([C@H](C)CO)C[C@@H]2C)cc1	i	i	i	i
C[C@H](CO)N1C[C@H](C)[C@@H](CN(C)C(=O)CCC(F)(F)F)OCCCC[C@H](C)Oc2ccc(NC(=O)c3ccncc3)cc2C1=O	i	i	i	i
CC(=O)O[C@@H]1[C@@H](O)[C@H](C)O[C@@H](O[C@H]2[C@@H]3C=CO[C@@H](O[C@@H]4O[C@H](CO)[C@@H](O)[C@H](O)[C@H]4O)[C@@H]3[C@@]3(CO)O[C@@H]23)[C@@H]1OC(=O)/C=C/c1ccc(O)cc1	i	i	i	i
CC(C)SC(=N)N	i	i	i	i
COc1cc(CO)cc(Br)c1OCc1cccc([N+](=O)[O-])c1	i	i	i	i
C[C@H]1CN([C@@H](C)CO)C(=O)c2cccc(NC(=O)c3ccncc3)c2O[C@H]1CN(C)S(=O)(=O)c1ccc(F)cc1	i	i	i	i
CC1(C)Cc2c(c(N3CCOCC3)nc3sc4c(=O)[nH]nnc4c23)CO1	i	i	i	i
CCOC(=O)COc1ccc(-c2nc3c([nH]2)c(=O)n(C)c(=O)n3C)cc1OC	i	i	i	i
COc1ccc(NC(=O)N(C)C[C@@H]2OCCCC[C@@H](C)Oc3ccc(NC(=O)CCC(F)(F)F)cc3C(=O)N([C@H](C)CO)C[C@@H]2C)cc1	i	i	x	i
C[C@H](CO)N1C[C@H](C)[C@@H](CN(C)S(=O)(=O)c2ccc(Cl)cc2)Oc2c(NS(=O)(=O)c3cccs3)cccc2C1=O	i	i	i	i
CNC[C@@H]1Oc2ccc(NC(=O)Nc3ccc4c(c3)OCO4)cc2CC(=O)N([C@H](C)CO)C[C@@H]1C	i	i	i	i
CNC[C@H]1Oc2c(cccc2N(C)C)C(=O)N([C@H](C)CO)C[C@@H]1C	i	i	i	i
CC(C)NC(=O)Nc1ccc2c(c1)C(=O)N([C@@H](C)CO)C[C@@H](C)[C@@H](CN(C)CC1CC1)OCCCC[C@@H](C)O2	i	i	x	i
C[C@@H]1CN([C@@H](C)CO)C(=O)c2cc(NS(=O)(=O)c3cn(C)cn3)ccc2O[C@@H]1CN(C)C(=O)Nc1ccc(F)cc1	i	i	i	i
CC(C)NC(=O)Nc1ccc2c(c1)C(=O)N([C@H](C)CO)C[C@H](C)[C@H](CN(C)Cc1ccc(C(=O)O)cc1)OCCCC[C@@H](C)O2	i	i	i	i
O=C1CC(c2ccc(O)cc2)Oc2cc(O)cc(O[C@@H]3O[C@H](CO)[C@@H](O)[C@H](O)[C@H]3O)c21 (stereo partly drawn)	i	i	x	i
CS(=O)(=O)N(CC(=O)Nc1ccccc1)c1ccc(F)c(Cl)c1	i	i	i	i
C[C@H](CO)N1C[C@H](C)[C@@H](CN(C)Cc2ccc(C(=O)O)cc2)Oc2c(NS(=O)(=O)c3ccc(Cl)cc3)cccc2C1=O	i	i	i	i
C[C@H](CO)N1C[C@H](C)[C@H](CN(C)C(=O)NC2CCCC2)Oc2ncc(-c3cc4ccccc4o3)cc2C1=O	i	i	i	i
Cn1nnnc1SCC(=O)Nc1ccc2c(c1)OCCO2	i	i	i	i
Cc1noc(COc2ccc(OCc3nc(C)no3)cc2)n1	i	i	i	i
C[C@@H]1CN([C@H](C)CO)C(=O)c2cccc(NS(=O)(=O)c3ccc(Cl)cc3)c2O[C@@H]1CN(C)C(=O)Nc1ccc(C(F)(F)F)cc1	i	i	i	i
C[C@@H]1CCCCO[C@@H](CN(C)C)[C@H](C)CN([C@H](C)CO)C(=O)c2cc(NC(=O)Nc3cccc4ccccc34)ccc2O1	i	i	i	i
CCC(C)c1c(O)nc(SCC(=O)c2ccccc2)[nH]c1=O (stereo not drawn)	i	i	i	i
C[C@@H]1CN([C@@H](C)CO)C(=O)Cc2cc(NC(=O)Cc3cn(C)c4ccccc34)ccc2O[C@@H]1CN(C)Cc1ccncc1	i	i	i	i
COc1cccc(NC(=O)CNC(=O)c2ccccc2)c1	i	i	i	i
COCCCNC(=O)[C@@]1(CCS(=O)(=O)c2ccccc2)COC(c2ccc(OCCCO)cc2)=N1	i	i	i	i
C[C@@H]1CN([C@@H](C)CO)C(=O)c2cc(NS(C)(=O)=O)ccc2O[C@@H](C)CCCCO[C@@H]1CN(C)C(=O)CCCN(C)C	i	i	i	i
Cc1ccc(S(=O)(=O)N(CC(=O)O)c2ccccc2C)cc1	i	i	i	i
C[C@H]1CN([C@@H](C)CO)C(=O)c2cccc(NC(=O)C3CCOCC3)c2O[C@@H]1CN(C)Cc1ccc(Cl)c(Cl)c1	i	i	i	i
Cc1ccccc1C(OCCN(C)C)c1ccccc1 (stereo not drawn)	i	i	i	i
Cc1ccccc1Nc1nc(N)nc(CN2CCN(c3ccccn3)CC2)n1	i	i	i	i
Cc1noc(C)c1S(=O)(=O)N(C)C[C@@H]1OCCCC[C@@H](C)Oc2ccc(NC(=O)NC(C)C)cc2C(=O)N([C@@H](C)CO)C[C@H]1C	i	i	i	i
COc1ccc(-c2noc(CC(=O)O)c2-c2ccc(OC)cc2)cc1	+	i	i	i
COc1ccc([Si](C)(C)[C@@H]2[C@@H](CCn3cc(CCO)nn3)O[C@]3(C(=O)N(c4ccccc4)c4ccccc43)[C@H]2C)cc1	i	i	x	i
C[C@@H]1CN([C@H](C)CO)C(=O)c2cccc(NS(=O)(=O)c3ccc(Cl)cc3)c2O[C@@H]1CN(C)Cc1ccc(C(=O)O)cc1	i	i	i	i
[N-]=[N+]=NCc1ccccc1C[C@]1(C(=O)N2CCCCC2)COC(c2ccc(OCCCO)cc2)=N1	i	i	x	i
Cc1cc(C(F)F)n2nc(C(=O)Nc3ccc(S(=O)(=O)N4CCCC4)cc3)nc2n1	i	i	i	i
COc1ccc(Br)cc1CN1CCN(Cc2c[nH]c3ccccc23)CC1	i	i	i	i
C[C@@H]1CCCCO[C@H](CN(C)C(=O)CCCN(C)C)[C@H](C)CN([C@@H](C)CO)C(=O)c2cc(NS(=O)(=O)c3cccs3)ccc2O1	i	i	i	i

Continuation.
SMILES	c-Myc SMM	p53 mut binder	ID4 binder	STAT3 binder
C[C@@H]1CN([C@H](C)CO)C(=O)c2cccc(NC(=O)C3CCOCC3)c2O[C@@H]1CN(C)C(=O)Nc1ccc(F)cc1	i	i	i	i
Cc1noc(C)c1S(=O)(=O)N(C)C[C@H]1Oc2ccc(NC(=O)Nc3ccc(F)cc3)cc2CC(=O)N([C@@H](C)CO)C[C@H]1C	i	i	i	i
COc1ccc(NC(=O)N(C)C[C@@H]2Oc3c(NS(=O)(=O)c4cccs4)cccc3C(=O)N([C@@H](C)CO)C[C@@H]2C)cc1	i	i	i	i
COc1ccc(S(=O)(=O)N(C)C[C@@H]2Oc3ccc(NC(=O)Nc4ccc(C(F)(F)F)cc4)cc3C(=O)N([C@H](C)CO)C[C@H]2C)cc1	i	i	i	i
Cc1cc(F)c(Nc2ncnc3cc(OCc4ccccc4)ccc23)cc1O	i	i	i	i
CNC[C@H]1OCCCC[C@H](C)Oc2ccc(NS(=O)(=O)c3cccs3)cc2C(=O)N([C@@H](C)CO)C[C@@H]1C	i	i	+	i
COc1ccc(CN(C)C[C@H]2Oc3c(NS(=O)(=O)c4ccc(OC)cc4)cccc3C(=O)N([C@H](C)CO)C[C@@H]2C)cc1	i	i	i	i
C[C@@H]1CN([C@@H](C)CO)C(=O)c2cc(N(C)C)ccc2O[C@@H]1CN(C)C(=O)NC1CCCCC1	i	i	i	i
COc1ccc(S(=O)(=O)Nc2ccc3c(c2)CC(=O)N([C@H](C)CO)C[C@H](C)[C@H](CN(C)C)O3)cc1	i	i	i	i
CC1(C)NC(=O)N(CC(O)CNC23CC4CC(CC(C4)C2)C3)C1=O (stereo not drawn)	i	i	i	i
C[C@H]1CN([C@@H](C)CO)C(=O)CCCn2nncc2CO[C@@H]1CN(C)Cc1ccc(C(F)(F)F)cc1	i	i	i	i
C[C@@H]1CCCCO[C@H](CN(C)S(=O)(=O)c2ccccc2)[C@H](C)CN([C@@H](C)CO)C(=O)c2cc(NC(=O)CCC(F)(F)F)ccc2O1	i	i	i	i
C[C@@H]1CN([C@@H](C)CO)C(=O)CCCn2cc(nn2)CO[C@@H]1CN(C)C(=O)Cc1ccccc1	i	i	i	i
COc1ccc(CN(C)C[C@@H]2Oc3c(NC(=O)c4ccc(-c5nccs5)cc4)cccc3C(=O)N([C@H](C)CO)C[C@@H]2C)cc1	i	i	i	i
Cc1cc(C(=O)CSc2ncn[nH]2)c(C)n1-c1cc(F)ccc1F	i	i	i	i
CC1CC(=O)C2=C(C1)C(Cl)C(O)C1(O)C2C(=O)c2cccc(O)c2C1O (stereo not drawn)	i	i	i	i
CNc1nc(OCCNC(=O)Nc2ccccc2)nc(N2CCOCC2)n1	i	i	i	i
CNC[C@@H]1Oc2ccc(NS(=O)(=O)c3c(C)noc3C)cc2C(=O)N([C@@H](C)CO)C[C@H]1C	i	i	i	i
C[C@H]1CN([C@@H](C)CO)C(=O)Cc2cc(NC(=O)CCC(F)(F)F)ccc2O[C@@H]1CN(C)S(=O)(=O)c1ccccc1	i	i	i	i
Cc1noc(C)c1NC(=O)Nc1ccc2c(c1)C(=O)N([C@@H](C)CO)C[C@@H](C)[C@@H](CN(C)C(=O)Nc1c(C)noc1C)OCCCC[C@@H](C)O2	i	i	i	i
CCOC(=O)c1ccccc1NC(=O)c1ccccc1N(C)S(C)(=O)=O	i	i	i	i
COc1ccc(CN(C)C[C@H]2Oc3ccc(NC(=O)Nc4ccc(OC)cc4)cc3C(=O)N([C@H](C)CO)C[C@H]2C)cc1	i	i	i	i
C[C@H]1CCCCO[C@H](CN(C)C(=O)CCC(F)(F)F)[C@@H](C)CN([C@@H](C)CO)C(=O)c2cc(NS(=O)(=O)c3cccs3)ccc2O1	i	i	i	i
C[C@@H]1CN([C@H](C)CO)C(=O)c2cc(NS(=O)(=O)c3cccs3)ccc2O[C@@H](C)CCCCO[C@@H]1CN(C)S(=O)(=O)c1cccs1	i	i	i	i
O=C(Nc1ccccc1)C1=C[C@H](c2ccc3c(c2)Cc2ccccc2-3)C[C@H](OCc2ccc(CO)cc2)O1	i	i	i	i
CC(C)NC(=O)N(C)C[C@H]1OCCCC[C@H](C)Oc2ccc(N(C)C)cc2C(=O)N([C@H](C)CO)C[C@H]1C	i	i	i	i
Cc1noc(C)c1NC(=O)Nc1ccc2c(c1)C(=O)N([C@H](C)CO)C[C@H](C)[C@H](CN(C)C)OCCCC[C@H](C)O2	i	i	i	i
CC(Oc1ccc(Cl)cc1Cl)C(=O)NC(=S)Nc1sc2c(c1C#N)CCCC2 (stereo not drawn)	i	i	i	i
CCOC(=O)c1c(NC(=O)C2(C)Cc3ccccc3C(=O)O2)sc(C)c1C (stereo not drawn)	i	i	i	i

Six records picked at random from the list so far, as already listed:
SMILES	c-Myc SMM	p53 mut binder	ID4 binder	STAT3 binder
CCOC(=O)c1ccccc1NC(=O)c1ccccc1N(C)S(C)(=O)=O	i	i	i	i
COc1cc(CO)cc(Br)c1OCc1cccc([N+](=O)[O-])c1	i	i	i	i
COc1ccc(S(=O)(=O)Nc2ccc3c(c2)CC(=O)N([C@H](C)CO)C[C@H](C)[C@H](CN(C)C)O3)cc1	i	i	i	i
COc1cccc(NC(=O)CNC(=O)c2ccccc2)c1	i	i	i	i
CNC[C@@H]1Oc2ccc(NS(=O)(=O)c3c(C)noc3C)cc2C(=O)N([C@@H](C)CO)C[C@H]1C	i	i	i	i
CNC[C@H]1Oc2c(cccc2N(C)C)C(=O)N([C@H](C)CO)C[C@@H]1C	i	i	i	i

Sorted by molecular weight (descending): some entries from above
SMILES	c-Myc SMM	p53 mut binder	ID4 binder	STAT3 binder
C[C@@H]1CN([C@H](C)CO)C(=O)c2cc(NS(=O)(=O)c3cccs3)ccc2O[C@@H](C)CCCCO[C@@H]1CN(C)S(=O)(=O)c1cccs1	i	i	i	i
CC(Oc1ccc(Cl)cc1Cl)C(=O)NC(=S)Nc1sc2c(c1C#N)CCCC2 (stereo not drawn)	i	i	i	i
CCOC(=O)c1c(NC(=O)C2(C)Cc3ccccc3C(=O)O2)sc(C)c1C (stereo not drawn)	i	i	i	i
